# Compound activity as filed in PubChem BioAssay.
# TRPML1 agonist – qHTS for Agonists of the Human Mucolipin Transient Receptor Potential 1 (TRPML1); Mucolipin-1 (Homo sapiens), Q9GZU1; TRPML1-expressing cells, Ca2+ dye fluorescence, FDSS; host cell line not named in the record; reference of the full effect not given here; activation, % (concentration not given with the values); 410,000 compounds, 0.12% hits; in the data active = activation above about 50%; inconclusive = about 30% to 50%; inactive = below about 30%; note: 0% is about no effect; the text of the record puts the active cut at 80%
#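 Calcium fluorescence on an FDSS kinetic reader gave the read-out. Tet-induced TRPML1-DL cells were plated overnight, dye-loaded (Ca8 with quencher, 45-90 min, room temperature, dark), then read 110 s after compound addition, and again 110 s after 4uM final 54-4 (EC80).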
# D2 PAM – Beta-Arrestin HTS for Positive Allosteric Modulators of the Human D2 Dopamine Receptor: Potentiators. AID 624464, 2012. potentiation, % (no concentration beside the values). DiscoveRx D2 beta-arrestin cells, luminescence, 90 min; 100% = 57 uM dopamine signal. 360,000 compounds, 0.23% hits; active = potentiation of 50% or more; inconclusive = 30% to 50%; inactive = 30% or less;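 note: compound concentration not given in the record; tested on top of an EC20 dose of dopamine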
#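 PathHunter beta-arrestin assay in DiscoveRx D2 cells. Compounds were added with an EC20 of dopamine (50 nM final) for 90 min at 37 deg C. Luminescence was read 1 h after detection reagent, with 57 uM dopamine as the EC100 control.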
# Six1-Eya2 blk – qHTS Assay for Inhibitors of the Six1/Eya2 Interaction; Homeobox protein SIX1 (Homo sapiens) + Protein phosphatase EYA2 (Homo sapiens), …; AlphaScreen GST-Six1/His-Eya2 binding, biochemical; hits give low values; control for the full effect not named in the record; activity change, % (test concentration not listed); 360,000 compounds, 0.56% hits; in the data active = activity change below about -65%; inconclusive = about -30% to -65%; inactive = above about -30%; note: % is set by controls: 0 for no effect and ±100 for the full control effect
# Target sequence (O00167 whole entry, looked up): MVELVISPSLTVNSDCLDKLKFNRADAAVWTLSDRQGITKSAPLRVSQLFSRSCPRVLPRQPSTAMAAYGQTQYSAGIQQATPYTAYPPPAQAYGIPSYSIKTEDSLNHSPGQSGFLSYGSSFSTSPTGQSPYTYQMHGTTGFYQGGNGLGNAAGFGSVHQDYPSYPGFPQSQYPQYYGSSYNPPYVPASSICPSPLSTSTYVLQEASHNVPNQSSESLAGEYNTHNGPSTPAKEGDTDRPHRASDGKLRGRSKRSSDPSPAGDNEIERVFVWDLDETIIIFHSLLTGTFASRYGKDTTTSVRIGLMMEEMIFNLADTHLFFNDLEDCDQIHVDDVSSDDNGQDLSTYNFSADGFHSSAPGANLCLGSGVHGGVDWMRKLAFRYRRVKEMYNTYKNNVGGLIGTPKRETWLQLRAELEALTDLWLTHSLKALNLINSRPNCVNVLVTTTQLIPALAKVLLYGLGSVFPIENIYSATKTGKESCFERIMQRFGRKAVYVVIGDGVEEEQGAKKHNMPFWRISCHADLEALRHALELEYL
# Target sequence (Q15475 whole entry, looked up): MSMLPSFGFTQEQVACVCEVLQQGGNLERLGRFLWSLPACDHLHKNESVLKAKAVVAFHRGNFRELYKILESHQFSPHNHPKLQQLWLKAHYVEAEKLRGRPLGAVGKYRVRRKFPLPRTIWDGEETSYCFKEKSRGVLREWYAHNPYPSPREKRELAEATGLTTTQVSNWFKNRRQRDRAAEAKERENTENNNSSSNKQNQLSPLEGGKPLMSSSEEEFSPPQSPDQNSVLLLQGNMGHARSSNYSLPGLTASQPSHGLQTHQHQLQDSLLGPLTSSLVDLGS
#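 Six1/Eya2 binding was read as AlphaScreen signal after compounds were pinned into GST-Six1 plus His-tagged Eya2 (5X stock 250/500 nM) in pH 8.0 Tris/NaCl/TCEP buffer, beads added, then incubated 1 h, 37 C, dark.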
# D2 ag – Beta-Arrestin HTS for Positive Allosteric Modulators of the Human D2 Dopamine Receptor: Agonists; D(2) dopamine receptor (Homo sapiens), P14416; DiscoveRx PathHunter D2 beta-arrestin, luminescence, 90 min; 100% = 57 uM dopamine signal; activation, % (no concentration beside the values); 360,000 compounds, 0.084% hits; AID 624465, 2012; in the data active = activation above about 40%; inconclusive = about 15% to 40%; inactive = below about 15%; note: compound concentration not given in the record; the text of the record calls up to 30% inactive
#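 Agonist mode: compounds alone added to overnight-plated D2 PathHunter cells for 90 min at 37 C, with 57 uM final dopamine (EC100) defining full response. Beta-arrestin recruitment detected by chemiluminescent reagent, read after 1 h at ambient temperature.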
# PINK1 expr mod – A Quantitative High throughput Screen to Identify Chemical Modulators of PINK1 Expression | PINK1 immunofluorescence, high-content cytometry, 24 h | AID 624263, 2012 | 410,000 compounds, 0.2% hits | Potency, µM (titrated, usually from 76.6 µM), inactives show top-dose activation (PINK1 increase), most hits filed as activators; active = well fitted activation curve with a large enough effect; inconclusive = small, poorly fitted or top-dose-only effect; inactive = flat fitted curve, though single readings scatter; cell line not stated here;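 note: potency is the fitted concentration of half-maximal effect; % of control where 0% means no effect; nearly all actives have a fitted effect of over 65% in size; a mitochondrial uncoupler was the plate control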
#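 PINK1 protein, normally rapidly degraded, was detected by immunofluorescence after 24 hour compound treatment of a stable cell line. Titration data (5 concentrations) came from laser-scanning cytometry, with CCCP-treated wells as controls.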
# CtBP-E1A inh – qHTS Assay for Inhibitors of the CtBP/E1A Interaction; activity change, % (concentration not given with the values); AID 651724, 2012; CtBP / adenovirus E1A interaction (AlphaScreen); AlphaScreen GST-E1A/His-CtBP binding, 1536-well; hits give low values; control for the full effect not named in the record; 340,000 compounds, 0.49% hits; in the data active means activity change below about -65%; inconclusive means about -30% to -65%; inactive means above about -30%; note: % is set by controls: 0 for no effect and ±100 for the full control effect
#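 GST-E1A and His-tagged CtBP (125 nM each as 5X stock) were preincubated with pin-transferred compound for 2 h at 37 °C in the dark, then glutathione donor and nickel acceptor beads were added for 1 h before AlphaScreen reading.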
# * marks the source's active call; other numbers are inactive results; ? = inconclusive; · = not tested or not shown; & = joins results of further samples; [ ] = another dose, or the depositor's remark.
1	CCCCCCC(=O)N1CCN(c2cc3c(cc2F)c(=O)c(C(=O)O)cn3CC)CC1
2	CC(Sc1nnc(N)s1)C(=O)NNC(=O)c1cccc(Cl)c1 (configuration not stated)
3	O=C(Cc1ccccc1)NC(CSSCC(NC(=O)Cc1ccccc1)C(=O)O)C(=O)O (configuration not stated)
4	O=C(c1cccs1)N1N=C(c2ccccc2)CC1c1ccccc1O (configuration not stated)
5	COc1ccc(NC(=O)CN(C)C(=O)c2c(-c3ccccc3Cl)noc2C)cc1
6	O=C(OCC(=O)N1CCc2ccccc21)c1ccc[n+]([O-])c1
assay / entry	1	2	3	4	5	6
TRPML1 agonist	0.1	-0.5	0.4	1.7	-0.1	-1.2
D2 PAM	5	-19	-8	-7	-9	-4
Six1-Eya2 blk	-1	-3	7	8	3	6
D2 ag	-4.8	-2.6	-1.8	-0.5	-2.3	-2.8
PINK1 expr mod	0.1%	1.6%	-2.0%	11%	-2.5%	-1.8%
CtBP-E1A inh	16	-4	7	-1	-4	2

7	CCOC(=O)CSc1nnc(CSc2nc3sc4c(c3c(=O)[nH]2)CCCC4)n1-c1ccccc1
8	COC(=O)C1=C(C)N(CCc2ccc(OC)cc2)C(=O)C1
9	CC(C)(C)C(=O)Cn1nc(Cl)nc1Cl
10	C[C@@H]1CN([C@H](C)CO)C(=O)c2cc(NC(=O)Nc3ccc(C(F)(F)F)cc3)ccc2O[C@H]1CN(C)C(=O)Nc1ccc(F)cc1
11	CC(C)CCSc1nc2c(c(=O)[nH]c(=O)n2C)n1CCCc1ccccc1
12	O=C1/C(=C/c2ccccn2)SC(=S)N1NS(=O)(=O)c1ccccc1
assay / entry	7	8	9	10	11	12
TRPML1 agonist	1.5	-0.5	-0.5	-0.9	2.6	3.5
D2 PAM	8	-9	-8	-3	0	8
Six1-Eya2 blk	8	9	18	-8	-1	-5
D2 ag	3.8	0.4	-5.3	-0.1	6.3	3.2
PINK1 expr mod	-0.2%	-0.9%	0.3%	2.9%	4.1%	-0.3%
CtBP-E1A inh	-7	-11	7	-2	-4	·

13	O=c1[nH]c(=S)[nH]c(O)c1/C=C1\C=Nc2ccccc21
14	Cc1ccnc(NC(c2cccnc2)c2ccc3cccnc3c2O)c1 (configuration not stated)
15	O=C(COc1coc(CN2CCc3ccccc32)cc1=O)Nc1cccc(F)c1
16	Cc1c(C)c2ccc(OCC(=O)NCCCn3ccnc3)cc2oc1=O
17	O=C(Nc1nc2ccc(F)cc2s1)c1ccc([N+](=O)[O-])o1
18	Cc1cc(NC(=O)CSc2n[nH]c(=O)[nH]c2=O)ccc1Br
assay / entry	13	14	15	16	17	18
TRPML1 agonist	0.1	4.9	0.3	-0.2	-0.7	-0.1
D2 PAM	-33	-9	-22	-7	-3	-14
Six1-Eya2 blk	-3	-86*	-2	0	3	2
D2 ag	-1.2	7.5	-3.5	2.2	-1.8	-3.5
PINK1 expr mod	2.8%	-1.1%	12%	-1.8%	2.9%	-1.4%
CtBP-E1A inh	2	-99*	6	·	1	·

19	COc1ccc(N)cc1-n1c(C)ccc1C
20	COc1ccc(-c2nn(-c3ccccc3)cc2C(=O)N2CCN(S(=O)(=O)c3ccccc3[N+](=O)[O-])CC2)cc1
21	O=C(CC(=O)N1CCN(c2ccccn2)CC1)Nc1ccc2nc3n(c(=O)c2c1)CCCCC3
22	Cc1cc(S(=O)(=O)NCC(C)C)ccc1OCC(=O)NCc1ccccn1
23	Cn1c(CNC(=O)C2CCCCC2)cc2ccccc21
24	COc1ccc(CCNC(=O)c2cnc3ccccc3n2)cc1
assay / entry	19	20	21	22	23	24
TRPML1 agonist	-0.4	-0.6	-0.4	-1.2	·	0.9
D2 PAM	-19	-8	-5	3	-6	-2
Six1-Eya2 blk	?	-12	-9	-1	-5	3
D2 ag	13	2.0	0.2	-2.4	-1.3	-3.7
PINK1 expr mod	13%	1.8%	-0.1%	-0.2%	8.5%	0.8%
CtBP-E1A inh	3	·	-6	2	·	2

25	COc1ccc(S(=O)(=O)Nc2noc3ccccc23)cc1
26	CSc1nc(C)c(CCOC(=O)c2ccccc2)c(=O)[nH]1
27	O=C(Cc1ccc2c(c1)OCCO2)N1CCN(c2ccccc2)CC1
28	CSCCC(NC(=O)COc1ccccc1)C(=O)NCC(C)(C)N1CCOCC1 (configuration not stated)
29	COC(=O)c1ccccc1NC(=O)c1cccc(COc2ccccc2Cl)c1
30	O=C1c2ccccc2NC(c2cccc(F)c2)N1Cc1ccco1 (configuration not stated)
assay / entry	25	26	27	28	29	30
TRPML1 agonist	-0.6	0.7	0.0	-0.4	4.2	-0.2
D2 PAM	9	-5	-7	-3	-37	-2
Six1-Eya2 blk	-1	2	0	4	25	-10
D2 ag	-6.7	-3.8	-0.5	-3.1	-5.6	-1.5
PINK1 expr mod	1.2%	-3.2%	-1.7%	0.3%	5.9%	-6.3%[38.3 µM]
CtBP-E1A inh	·	2	3	2	30	-10

31	COc1ccccc1CC(=O)Nc1ccc(S(=O)(=O)N2CCN(C)CC2)cc1
32	C=CCNC(=O)NC(=O)COC(=O)CC(NC(N)=O)c1ccc(Cl)cc1 (configuration not stated)
33	CCOc1ccc(S(=O)(=O)N2CCN(C(=O)c3oc4ccc(OC)cc4c3C)CC2)cc1
34	COc1cc(C)c(NC(=S)Nc2ccc(Cl)c(Cl)c2)cc1OC
35	Nn1c(SCC(=O)NCCN2C(=O)CSC2=O)nnc1-c1ccc(OC(F)F)cc1
36	Cc1cccc(CSc2nc3[nH]ncc3c(=O)[nH]2)c1
assay / entry	31	32	33	34	35	36
TRPML1 agonist	0.6	0.6	2.6	0.5	-0.2	0.7
D2 PAM	-4	-21	-22	1	-8	0
Six1-Eya2 blk	1	26	-3	3	-2	2
D2 ag	-4.5	-2.8	-2.0	1.4	-2.4	-2.0
PINK1 expr mod	-2.0%	-0.1%	-2.9%	14%	0.9%	0.1%
CtBP-E1A inh	12	42	0	-3	6	-4

# Along the list, from the results shown:
# PINK1 expr mod for entries 32 to 36 → -0.1%, -2.9%, 14%, 0.9%, 0.1%

# Remaining list, next part.
37	CCc1cccc(CC)c1NC(=S)NCCc1c(C)[nH]c2ccc(C)cc12
38	CCCn1c(CN2CCCCC2C)nc2c1c(=O)n(C)c(=O)n2C (configuration not stated)
39	COc1ccccc1N1CCN(C(=O)C2CCCN(S(=O)(=O)c3ccc4c(c3)oc(=O)n4C)C2)CC1 (configuration not stated)
40	CCOc1ccc2c(c1)-c1c(ssc1=S)C(C)(C)N2C(=O)CSC1=NCCS1
41	Cc1nc2ccccn2c1C(=O)NCc1ccc2c(c1)OCO2
42	O=S(=O)(c1ccc2oc(=S)[nH]c2c1)N1CCOCC1
assay / entry	37	38	39	40	41	42
TRPML1 agonist	0.6	-0.2	-0.3&-0.2	-0.4	0.0	0.6
D2 PAM	-9	-1	11	-17	0	-19
Six1-Eya2 blk	-25	3	-2	?	-1	9
D2 ag	-6.7	-9.2	2.8	-1.8	-1.0	-3.9
PINK1 expr mod	?	1.8%	-0.9%&-0.1%	0.5%	0.5%[38.3 µM]	2.8%
CtBP-E1A inh	-1	2	-2	18	3	4

43	Oc1ccccc1-c1nc2cnccn2c1Nc1ccc2c(c1)OCCO2
44	C=CCC[C@@H](Cc1ccc(F)cc1)C(=O)OC[C@@H]1CCCN1C(=O)[C@@H](CC=C)CC(=O)N[C@@H](CO)Cc1ccccc1
45	CC(=O)C1=C(O)C(=O)N(CC(=O)O)C1c1ccccc1Cl (configuration not stated)
46	Cc1cc(C)nc(NS(=O)(=O)c2ccc(NC(=O)c3cccs3)cc2)n1
47	Cc1ccc(S(=O)(=O)N2CCN(C(=O)CCC(=O)N3CCc4ccccc43)CC2)cc1
48	O=C(NN/C(=N/S(=O)(=O)c1ccc(Cl)cc1)c1ccccc1)c1cccc(Cl)c1
assay / entry	43	44	45	46	47	48
TRPML1 agonist	0.7	0.2	0.9	1.1	-0.3	-0.6
D2 PAM	7	-1	-2	-3	-3	-11
Six1-Eya2 blk	-22	-2	2	-5	-3	23
D2 ag	0.0	-5.2	2.4	-1.0	-3.1	-2.7
PINK1 expr mod	-0.5%[38.3 µM]	10%	3.4%	-2.8%	-1.0%	2.3%
CtBP-E1A inh	-25	0	8	-5	3	-5

# CtBP-E1A inh, entries above that show a hit
cpd	mol	D2 PAM	Six1-Eya2 blk	D2 ag	CtBP-E1A inh
14	Cc1ccnc(NC(c2cccnc2)c2ccc3cccnc3c2O)c1 (configuration not stated)	-9	-86*	7.5	-99*

# Carrying on.
49	CC(C)CC(N)c1csc(NC(=O)NCCc2ccccc2)n1 (configuration not stated)
50	C/C(=N/Nc1ccc([N+](=O)[O-])cc1)c1c[nH]c2ccccc12
51	O=C(OC(C(=O)Nc1ccc(Cl)c(C(F)(F)F)c1)c1ccccc1)C1=COCCO1 (configuration not stated)
52	Cc1cc(NC(=O)COC(=O)Cn2[nH]c(=O)c3ccccc3c2=O)c([N+](=O)[O-])cc1C
53	CCCCNC(=O)C1(C)CCN1C(=O)c1c(F)ccc(C)c1F (configuration not stated)
54	CCOc1ccc2nc(SCC(=O)Nc3ccc4c(c3)OCO4)sc2c1
assay / entry	49	50	51	52	53	54
TRPML1 agonist	2.0	?	3.3	3.3	0.1	2.8
D2 PAM	-16	-30	-8	-16	-4	-10
Six1-Eya2 blk	-3	1	1	4	-4	0
D2 ag	-4.2	-8.6	-2.5	-4.3	-4.0	0.7
PINK1 expr mod	12%	3.8%	12%	0.7%	0.4%	-2.6%
CtBP-E1A inh	-23	·	9	-3	0	3

55	Cc1cc(CNC(=O)CC2C(=O)NCCN2CC(c2ccccc2)c2ccccc2)on1 (configuration not stated)
56	O=c1cc(O)n(-c2ccccc2F)c(=S)[nH]1
57	Cc1ccc(NCc2ccc(O)c3ncccc23)cc1
58	O=C(CSc1nnc2ccccn12)NC(=O)c1cccc([N+](=O)[O-])c1
59	O=C(c1cccc(COc2ccc(Cl)cc2Cl)c1)N1CCN(c2ccccn2)CC1
60	COC(=O)c1ccc2nc(-c3cccc(Cl)c3)c(Cc3ccsc3)n2c1
61	CC1CCC(NC(=O)CSc2nncn2C)CC1 (configuration not stated)
assay / entry	55	56	57	58	59	60	61
TRPML1 agonist	1.1	0.6	1.2	-0.1	-0.2	0.7	0.1
D2 PAM	-13	-6	-1	-2	-2	-12	-11
Six1-Eya2 blk	-1	-3	-72*	4	-9	16	-3
D2 ag	-4.5	-1.4	2.2	0.0	-2.0	-7.8	-2.9
PINK1 expr mod	-0.1%	3.4%[38.3 µM]	-0.7%	-2.2%	0.4%[38.3 µM]	0.5%	0.7%
CtBP-E1A inh	-15	-1	-78*	7	3	11	13
